Assay outcomes: PubChem BioAssay, National Center for Advancing Translational Sciences (NCATS)
VACV Venus inh – inhibitors of vaccinia virus (Venus reporter); Vaccinia virus Venus reporter expression, fluorescence; Potency, µM (doses to about 36.5 µM), for inactives: top-dose activity change, negative = inhibition, usual class: inhibitors; 0.46% of 330,000 active; active means well fitted inhibition curve with a large enough effect; inconclusive means small, poorly fitted or top-dose-only effect; inactive means no such curve, though single readings can be large or run the other way; tested in A549 cells; also: nearly all actives have a fitted effect of over 30% in size; inactives centre near -10
Vaccinia mCherry – vaccinia inhibition (mCherry reporter) | Vaccinia virus mCherry reporter infection, fluorescence; about a quarter of the inactives have no number | 0.63% of 310,000 active | Potency, µM (highest dose often 36.5 µM), inactives show at the top dose activity change, negative = inhibition, usual class: inhibitors; active = well fitted inhibition curve with a large enough effect; inconclusive = small, poorly fitted or top-dose-only effect; inactive = no such curve, though single readings can be large or run the other way; tested in A549 cells; also: nearly all actives have a fitted effect of over 35% in size; inactives centre near -10
Active calls of the source: *; i = inactive; ? = inconclusive; / = not tested or not shown; & = joins results of further samples; [ ] = dose if it differs, or a comment. % is scaled to controls: 0 for no effect and ±100 for the full control effect; potency is read from the fitted curve at half-maximal effect. The order is random; 0.87% or so of the library scored in one or more.

SMILES	VACV Venus inh	Vaccinia mCherry
CCCn1ncc(C(=O)NC2CCCN(Cc3ccc(Cl)cc3)C2)c1C (stereo not drawn)	-11%	-22%
O/N=C/c1ccc2ccccc2c1	-4%	i
O=c1c2ccccc2nnn1Cc1ccccc1Cl	-15%	i
COc1ccc(S(=O)(=O)CCC(=O)Nc2c(C)n(C)n(-c3ccccc3)c2=O)cc1	?	/
CCn1c(-c2ccccc2)csc1=Nc1ccc(S(=O)(=O)O)cc1	18%	-10%
C=CCC[C@@H](Cc1ccc(F)cc1)C(=O)OC[C@@H](C)NC(=O)[C@H](CC=C)CC(=O)N(CCO)Cc1ccccc1	?	?
CCC(c1nnc(SCc2nc3ccccc3s2)n1Cc1ccccc1)N(C)C (stereo not drawn)	-26%	-10%
CCOC(=O)c1cnc2c(-c3ccc(F)cc3)cnn2c1C(F)(F)F	-25%	-10%
CC(=O)c1ccc(N2CCCCC2)c(F)c1	-13%	-9%
CCC(CC)C(=O)Nc1cccc(C(=O)NC(C)(C)C)c1	1%	-10%
CN(C)S(=O)(=O)c1cccc(NC(=O)c2ccc(OC(F)(F)F)cc2)c1	-30%	-4%
CCNC(=O)c1cc(Cl)ccc1OC	0%	-10%
CCOc1ccc2nc(N(CCN(C)C)C(=O)c3ccc4ccccc4c3)sc2c1	-4%	?
O=C(COC(=O)C1COc2ccccc2O1)NC1CCCCC1 (stereo not drawn)	-6%	i
CN1CCN(S(=O)(=O)c2ccc(SCCOc3ccc(Cl)cc3)nc2)CC1	-21%	?
Cc1ccc2[nH]c(=O)c(CN(Cc3ccco3)C(=O)N3CCOCC3)cc2c1	-10%	i
S=C(Nc1ccc(Br)cc1)N1CCn2cccc2C1c1cccnc1 (stereo not drawn)	-15%	-18%
FC(F)(F)c1ccccc1-n1c(-c2cnccn2)n[nH]c1=S	-5%	-6%
O=C(Nc1ccc(F)c([N+](=O)[O-])c1)C(=O)c1c(O)[nH]c2ccccc12	4%	-24%
CC(C)c1ccc(/C=C(/C#N)c2nnc(NC(=O)c3ccccc3)s2)cc1	1%	-7%
COc1ccc(N2C(=O)CC(NNc3nc4ccccc4s3)C2=O)cc1 (stereo not drawn)	-8%	-2%
O=C(OCC(=O)N1CCCc2ccccc21)c1ccccc1OC(F)F	-3%	i
Cc1cc(C)c2c(N)c(C(=O)N3CCc4ccccc4C3)sc2n1	-24%	-15%
O=C(CN(Cc1ccco1)C(=O)Cn1nnc(-c2ccc(F)cc2)n1)NC1CCCC1	-11%	i
c1ccc2oc(NC3=NCN(C4CCCCC4)CN3)nc2c1	4%	11%

Next compounds:
SMILES	VACV Venus inh	Vaccinia mCherry
CC1CCc2nc(NC(=O)CN3CCN(c4ccccc4)CC3)sc2C1 (stereo not drawn)	-10%	/
Cc1cc(C)c(NC(=O)c2cn3c4c(c(N5CCN(C)CC5)c(F)cc4c2=O)OCC3C)c(C)c1 (stereo not drawn)	-10%	i
Cc1cc2c(cc1S(=O)(=O)N1CCN(c3cccc(C(F)(F)F)c3)CC1)OCC(=O)N2	5%[7.34 µM]	-4%[7.34 µM]
CCc1nc2c(OCc3cccc(Cl)c3)cccn2c1N(C)C(=O)C1CC1	-22%	?
Cn1c(=O)n(Cc2ccc(Cl)cc2)c2ccccc21	-6%	i
COc1cccc(CN2CCN(C(=O)C3CCC(=O)N(C4CCCC4)C3)CC2)c1 (stereo not drawn)	-20%	-4%
CC(=O)NS(=O)(=O)c1ccc(NC(=O)COc2cccc3c2OC(C)(C)C3)cc1	-10%	-12%
CC(=O)N1CCC(N(Cc2ccco2)C(=O)Nc2ccc(Br)cc2F)CC1	1%	-11%
COc1cccc(C(=O)NC(=O)Nc2cc(C)[nH]n2)c1	12%	i
CCOc1ccc(NC(=O)COc2ccc(C(=O)NCc3cccnc3)cc2OC)cc1	-10%	-3%
O=C1C2C3C=CC(C4CC34)C2C(=O)N1Cc1ccccc1 (stereo not drawn)	8%	-9%
CC1(C(=O)NS(=O)(=O)c2cccc(F)c2)CCN1C(=O)c1ccccc1CCc1ccccc1 (stereo not drawn)	-1%	-2%
COc1cccc(C2CC(=O)Nc3cc(C)c(C)cc32)c1 (stereo not drawn)	-28%	?
Cc1cccc(N2CCN(C(=O)C3CCC(CNS(=O)(=O)c4ccc(Br)s4)CC3)CC2)c1C (stereo not drawn)	-6%	-9%
CCn1c(CC(=O)Nc2ccc(C)cc2)nnc1SCC(=O)N1CCN(c2ccccc2)CC1	-9%	-14%
CC(CC(=O)OCC(=O)Nc1ccc2[nH]c(=O)[nH]c2c1)c1ccccc1 (stereo not drawn)	-5%	i
COCC(=O)N(C)c1nnc(-c2cnccn2)s1	-6%	-12%
Cc1ccc(C)c(NC(=S)NCC(c2ccccc2)N(C)C)c1 (stereo not drawn)	-4%	-9%
COc1cccc(CN(C(=O)c2cc3ccccc3oc2=O)C2CCS(=O)(=O)C2)c1 (stereo not drawn)	-17%	-4%
CCOC(=O)Cc1csc(Nc2ccc(Cl)cc2)n1	-9%	-2%
O=C(c1ccco1)N1CCN(CCCCN2C(=O)c3ccccc3C2=O)CC1	2%	i
Cc1cc2nc(C3CCCN(C(=O)NCc4ccccc4)C3)[nH]c2cc1C (stereo not drawn)	-16%	-28%
C=CCn1c(SCc2c(C)noc2C)nnc1C1COc2ccccc2O1 (stereo not drawn)	-17%	-11%
CN(C)c1ccc(S(=O)(=O)NCC(=O)NCCOc2ccccc2F)cc1[N+](=O)[O-]	-26%	-8%
C#CCNC(=O)C1=C[C@H](C2CCCCC2)C[C@H](OCc2ccc(CO)cc2)O1	-13%	?

Quoted at random: 5 entries already listed
SMILES	VACV Venus inh	Vaccinia mCherry
Cn1c(=O)n(Cc2ccc(Cl)cc2)c2ccccc21	-6%	i
O=C(c1ccco1)N1CCN(CCCCN2C(=O)c3ccccc3C2=O)CC1	2%	i
COc1cccc(CN(C(=O)c2cc3ccccc3oc2=O)C2CCS(=O)(=O)C2)c1 (stereo not drawn)	-17%	-4%
O=C1C2C3C=CC(C4CC34)C2C(=O)N1Cc1ccccc1 (stereo not drawn)	8%	-9%
CCn1c(CC(=O)Nc2ccc(C)cc2)nnc1SCC(=O)N1CCN(c2ccccc2)CC1	-9%	-14%

Further compounds
SMILES	VACV Venus inh	Vaccinia mCherry
CCOc1ccc(C(=O)CC(NCc2cccs2)C(=O)O)cc1 (stereo not drawn)	-11%	-14%
Cc1ccc(C)c(C(=O)CSc2n[nH]c(C(C)C)n2)c1	-18%	-19%
Fc1ccccc1N1CCN(c2nnc(C(F)(F)F)c3nnn(Cc4ccccc4)c23)CC1	-15%	-7%
Cc1cc(C)nc(NS(=O)(=O)c2ccc(NC(=S)NC(=O)C(C)C)cc2)n1	-20%	?
O=c1[nH]c(Cn2nnc(-c3ccccc3)n2)nc2scc(-c3ccccc3)c12	?	/
CC(NCc1ccccc1Cl)C(=O)Nc1ccc(S(=O)(=O)N2CCCC2)cc1 (stereo not drawn)	-16%	-13%
CN1C2C=C3C(C#N)=C(N)C(C#N)(C#N)[C@@H](c4cccc(F)c4)[C@@H]3C1CC2 (stereo partly drawn)	?	/
Cc1ccc(OCCNC(=O)c2cc(=O)[nH]c3ccccc23)cc1	-20%	i
CCOC(=O)[C@]12Cc3cc(Cl)ccc3[C@H]1N(Cc1ccccc1)C(=O)c1ccccc12	-2%&-29%	?
CCCNC(=O)CCCN1C(=O)CCn2nc(-c3cccn3C)cc21	9%	-8%
O=C1/C(=C/c2ccc(F)cc2)CCC1C1CCCC1 (stereo not drawn)	-2%	-14%
O=C(NC(=S)Nc1cccnc1)c1cccc(Cl)c1	-12%	i
CCN1CCN(C(c2ccc(OC)cc2)c2c(O)cc(C)n(Cc3ccco3)c2=O)CC1 (stereo not drawn)	-15%	-12%
CCCc1ccc(-c2ccc(C(=O)Oc3ccc(Br)cc3)cc2)nc1	4%	10%
CC(C)CC(=O)OCc1cc(=O)n2nc(C3CCCCC3)sc2n1	1%	-3%
Cc1cccc(NCc2ccc([N+](=O)[O-])s2)c1	-5%	-13%
Cn1c(=O)n(C)c2cc(NS(C)(=O)=O)ccc21	-21%	-7%
CC(NC(=O)C(=O)NCC1CCCO1)c1ccccc1 (stereo not drawn)	-4%	-13%
Cn1cccc1/C=N/NC(=O)c1cccc(OC(F)(F)C(F)F)c1	-4%	-14%
CCc1nc2cccnc2n1-c1ccc(CC(=O)Nc2ccccc2Cl)cc1	-15%	-18%
COc1cccc(Sc2nc(N(C)C)ncc2S(=O)(=O)c2ccc(Cl)cc2)c1	-20%	-22%
O=c1cc(-c2ccc(F)cc2)nc(SCc2nc(-c3ccccc3Cl)no2)[nH]1	-4%	i
CCCOc1ccc(N2C(=O)CC(N3CCN(c4nc5ccccc5s4)CC3)C2=O)cc1 (stereo not drawn)	13%	/
C=CC(n1cncn1)C(O)(c1ccccc1)c1ccccc1 (stereo not drawn)	-14%	i
CCOC(=O)N1CCN(C(=O)CSc2nnc(CNC(=O)c3c(F)cccc3Cl)o2)CC1	-1%	-6%

The listing continues:
SMILES	VACV Venus inh	Vaccinia mCherry
Cc1noc(C)c1COC(=O)CCCNC(=O)c1ccc(Cl)cc1	-13%	i
Cc1ccc(SCCOCCN2CCOCC2)cc1	-16%	-23%
CC(=O)Cc1c[nH]c2ccccc12	-13%	-5%
COC(=O)N1C(=O)[C@](c2ccccc2)(C(C)C)N1C(=O)OC	-26%	?
Cc1ccc(-c2nnc(Nc3ccc(Br)cc3)c3ccccc23)cc1S(=O)(=O)NCc1nc2ccccc2[nH]1	-18%	?
O=C(NCc1ccco1)/C(=C\c1cccc([N+](=O)[O-])c1)NC(=O)c1ccco1	-15%	-5%
CC(C)(C)OC(=O)N1CCC(c2c(C(=O)N3CCN(Cc4ccccc4)CC3)cnn2-c2ccc(Cl)cc2)CC1	-18%	?
O=C(NCCc1ccc(F)cc1)Nc1ccc([N+](=O)[O-])cc1	-19%	i
Cc1ccc(S(=O)(=O)Oc2ccccc2/C=N/N=C(N)N)cc1	-15%	?
CCOC(=O)C(NCCc1ccccc1)(NC(C)=O)C(F)(F)F (stereo not drawn)	0%	-9%
COc1ccc(S(=O)(=O)NCCC(=O)OCc2cc(=O)oc3cc(C)ccc23)cc1[N+](=O)[O-]	-10%	-7%
CC(C(=O)N1CCCCC1)n1sc2ccccc2c1=O (stereo not drawn)	-3%	/
Cc1ccc(C)c(CSc2nc3ccncc3n2Cc2nc(-c3ccccc3Cl)oc2C)c1	-12%	-21%
CN(C)S(=O)(=O)c1ccc(/C(O)=C2/C(=O)C(=O)N(Cc3cccnc3)C2c2ccco2)cc1 (stereo not drawn)	-11%	/
Cc1ccc(NC(=O)NNC(=O)CN2C(=O)COc3ccccc32)cc1	2%	2%
C=CCn1c(SCc2cc(C(C)=O)ccc2OCC)nc2ccccc2c1=O	-25%	-8%
Cc1cc(=O)n2nc(-c3ccccc3)sc2c1C#N	9%	0%
C=C(C)C(O)Cc1c(OC)ccc(C(=O)/C=C/c2ccc(O)cc2)c1O (stereo not drawn)	7%	-12%
O=c1[nH]c(SCc2ccc(OC(F)(F)F)cc2)nc2c1CCC2	-4%	i
CCn1cc(C(=O)NCCc2ccc(Cl)cc2)c(=O)c2cc(S(=O)(=O)N3CCc4ccccc4C3)ccc21	-23%	?
CC1CC(NC(=O)c2ncn[nH]2)CC(C)(C)C1 (stereo not drawn)	-11%	i
CCc1nc(N)nc(N)c1-c1ccc(Cl)c(N=[N+]=[N-])c1	5.6µM*	?
O=C(C(=S)N1CCOCC1)c1c[nH]c2ccccc12	-8%	-9%
CCOc1cccc(-c2c(C(=O)N/N=C/c3cccnc3)nnn2-c2nonc2N)c1	-9%	-13%
Cc1cc(NC(=O)COc2ncnc3sc(C)c(C)c23)no1	-2%	/

(next part)
SMILES	VACV Venus inh	Vaccinia mCherry
COc1ccc(OC)c(CNS(=O)(=O)c2ccc3c(c2)CCCN3C(C)=O)c1	-6%	7%
CCOCCCNC(=O)CN1C(=O)CSc2ccccc21	-7%	-26%
COc1cc(CNc2nc(C)c(-c3ccn(C4Cc5ccccc5C4)n3)s2)cc2c1OCO2	-29%	-8%
Cc1cccc(N2CCN(Cc3cn(C)nc3-c3ccccc3F)CC2)n1	-19%	-26%
O=C(O)c1cccc(COc2ccc3c(c2)CCC3)c1	7%	-15%
O=C(CN(C(=O)CNS(=O)(=O)c1ccc(F)cc1)c1ccccc1)NCc1ccco1	-5%	i
COc1cccc(NC(=O)c2cnc(SCC(=O)N3CCOCC3)n(C)c2=O)c1	-10%	-9%
COC(=O)CSc1nnc(COc2ccc([N+](=O)[O-])cc2)n1C	-12%	i
Cc1ccc(NC(=O)CSc2ccc3c(c2)OCCO3)nc1	-8%	i
CC(C)(C)SCCNC(=O)CN1C(=O)c2ccccc2S1(=O)=O	-3%	i
NC1(C(=O)O)CC(C(=O)O)C1 (stereo not drawn)	-10%&-8%	i
COc1ccc(NC(=O)c2cc3c(=O)n(C)c4ccccc4c3n2C)cc1Cl	0%	i

One compound at a time, from the list above:
C#CCNC(=O)C1=C[C@H](C2CCCCC2)C[C@H](OCc2ccc(CO)cc2)O1 is entered as VACV Venus inh: -13%; Vaccinia mCherry: ?
Cc1ccc(NC(=O)NNC(=O)CN2C(=O)COc3ccccc32)cc1 is entered as VACV Venus inh: 2%; Vaccinia mCherry: 2%
Cc1cc(=O)n2nc(-c3ccccc3)sc2c1C#N is entered as VACV Venus inh: 9%; Vaccinia mCherry: 0%
